Source: PubChem (National Center for Advancing Translational Sciences (NCATS))
TDP1 inh: blocks human tyrosyl-DNA phosphodiesterase 1; 350,000 compounds, 0.28% hits; Potency, µM (doses to about 130 µM), for inactives: at the highest dose activity change, negative = inhibition, usual class: inhibitors; recombinant TDP1, AlphaScreen DNA substrate cleavage; Q9NUW8; note: nearly all actives have a fitted effect of over 40% in size
Target sequence (Q9NUW8 whole entry, looked up): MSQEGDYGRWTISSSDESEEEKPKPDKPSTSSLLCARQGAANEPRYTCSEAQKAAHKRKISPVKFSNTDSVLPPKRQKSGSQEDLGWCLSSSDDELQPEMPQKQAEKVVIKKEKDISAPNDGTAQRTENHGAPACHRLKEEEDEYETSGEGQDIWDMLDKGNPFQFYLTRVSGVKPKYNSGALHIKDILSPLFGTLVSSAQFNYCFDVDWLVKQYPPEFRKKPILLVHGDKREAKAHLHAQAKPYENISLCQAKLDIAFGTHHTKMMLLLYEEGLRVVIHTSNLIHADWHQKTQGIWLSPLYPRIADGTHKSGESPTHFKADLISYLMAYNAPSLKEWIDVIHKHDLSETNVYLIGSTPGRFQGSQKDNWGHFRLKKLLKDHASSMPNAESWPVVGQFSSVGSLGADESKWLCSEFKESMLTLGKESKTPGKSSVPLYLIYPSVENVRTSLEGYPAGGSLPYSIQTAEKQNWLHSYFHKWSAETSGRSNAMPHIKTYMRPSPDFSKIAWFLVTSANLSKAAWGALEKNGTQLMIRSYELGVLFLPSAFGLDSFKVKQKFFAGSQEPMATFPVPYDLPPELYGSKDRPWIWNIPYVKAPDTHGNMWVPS
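Recombinant E. coli-expressed Tdp1 (1 nM) preincubated with compound 15 min at RT, then 5'-biotin/3'-phosphotyrosine-FITC DNA substrate (15 nM) added for 5 min. AlphaScreen beads (10 ug/ml) added, 10 min RT; tyrosine-FITC cleavage read as signal loss.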
N370S GC mod: N370S glucocerebrosidase modulation, Gaucher chaperone candidate. N370S GC spleen homogenate, 4MU-glucoside fluorescence. AID 2101. Potency, µM (series often up to 59.4 µM), inactives show at the top dose activity change, negative = inhibition, hits mostly inhibitors. 330,000 compounds, 0.092% hits. P04062;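 note: 0% = full enzyme activity and -100% = no enzyme basal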
Active calls of the source: *; ? = inconclusive; · = not tested or not shown; [ ] = another dose, or the depositor's remark. Calls come from the whole dose curve; as a rule, active = well fitted curve in the direction sought with a large enough effect; inconclusive = small, poorly fitted or top-dose-only effect, or another doubt; inactive = no such curve, though single readings can be large; an effect the other way counts as inactive or inconclusive. Unless noted, % is set by controls: 0 for no effect and ±100 for the full control effect; potency is the fitted concentration of half-maximal effect.

(1) CN(C)CCn1c(=O)n(Cc2ccco2)c(=O)c2c3c(sc21)CCCCC3
(2) CCOc1ccc(C(C)=O)cc1COc1ccc(-n2cnnn2)cc1
(3) CC(=O)N1CCN(c2ccccc2NC(=O)COc2ccc(Cl)cc2Cl)CC1
(4) CCOC(=O)N1CCN(C(=O)Cc2ccccc2OC)CC1
(5) CCN(CC)S(=O)(=O)c1cc(C(=O)OCC(=O)Nc2cccc(C)c2C)ccc1F
(6) O=C(CN1CCCCCC1)Nc1ccc(S(=O)(=O)N2CCCCC2)cc1
(7) CC(=O)N(CCP(=O)(c1ccccc1)c1ccccc1)Cc1ccco1
(8) O=C(O)c1ccc(NC(=O)c2ccc(Cl)cc2)c(NC(=O)c2ccc(Cl)cc2)c1

entry no.	1	2	3	4	5	6	7	8
N370S GC mod	-2.0%	-9.0%	-11.2%	-1.6%	1.1%	5.4%	1.5%[2.35 µM]	0.2%
TDP1 inh	6.2%	9.5%	3.3%	·	4.4%	-0.3%	0.0%	·

(9) Cc1onc(-c2ccccc2Cl)c1C(=O)Nc1ncn[nH]1
(10) CCn1cc(C(=O)NCCCN2CCN(C)CC2)c(=O)c2cc(S(=O)(=O)N3CCc4ccccc4C3)ccc21
(11) COC(=O)C1CCN(C(=O)Cc2ccccc2OC)CC1
(12) O=C(Nc1ccc([N+](=O)[O-])cc1)/C(=C/c1cccc([N+](=O)[O-])c1)NC(=O)C1CCCCC1
(13) COc1ccccc1NC(=S)NCCc1ccc(F)cc1
(14) CC(=O)c1cnn(-c2ccc(Cl)cc2)c1C
(15) CC(OC(=O)Cc1c[nH]c2ccccc12)C(=O)Nc1ccc(S(N)(=O)=O)cc1 (stereo unspecified)
(16) CCOC(=O)N1CCN(C(=O)CSc2nnc(-c3ccccc3OC)o2)CC1

entry no.	9	10	11	12	13	14	15	16
N370S GC mod	3.7%	-6.6%	3.3%	6.0%	-0.3%	10.0%	-8.1%	-1.4%
TDP1 inh	2.8%	2.6%	5.5%	2.1%	5.4%	-1.4%	3.2%[0.505 µM]	-2.1%

(17) COc1ccc(CCNC(=O)CC2(CC3=NS(=O)(=O)c4ccccc4N3)CCCC2)cc1OC
(18) CC(OC(=O)/C=C/c1ccc2ccccc2n1)C(=O)Nc1ccc(S(N)(=O)=O)cc1 (stereo unspecified)
(19) Cc1ccc(NC(=O)COC(=O)CCc2c[nH]c3ccccc23)c(C)c1
(20) CCc1c(C(=O)Nc2ccc(S(=O)(=O)N3CCOCC3)cc2)csc1C
(21) O=C1C(=O)N(C2CCN(C(=O)c3ccccc3Cl)CC2)CCN1Cc1ccc(F)cc1
(22) CSCCC(NC(=O)c1ccccc1)C(=O)N1CC=C(c2ccccc2)CC1 (stereo unspecified)
(23) CCOc1ccc(CCNC(=O)CCC(=O)Nc2ccc3nc(N4CCN(C)CC4)cc(C)c3c2)cc1OCC
(24) CC1CN(Cc2ccccc2)c2nc3c(c(=O)n(CC(=O)O)c(=O)n3C)n2C1 (stereo unspecified)

entry no.	17	18	19	20	21	22	23	24
N370S GC mod	-4.2%	-1.4%	·	-8.7%	·	-10.6%	-9.1%	-2.9%
TDP1 inh	2.7%	-6.8%[0.505 µM]	3.8%	4.4%	2.6%	6.1%	7.9%	·

(25) COC(=O)c1ccc(CSCC(=O)Nc2cc(OC)cc(OC)c2)o1
(26) CC(OC(=O)c1ccco1)C(=O)NCc1ccc2c(c1)OCO2 (stereo unspecified)
(27) CCN(CC)CCNC(=O)c1ccc(NC(=O)c2ccc3c(c2)CCC3)cc1
(28) CCN(CC)S(=O)(=O)c1ccc2oc(C(=O)NCCCN3CCOCC3)c(C)c2c1
(29) CCOc1ccc(C(=O)C2CCN(CC(=O)Nc3nccs3)CC2)cc1
(30) Cc1cc(/C=C(\C#N)C(=O)Nc2ccccc2)c(C)n1-c1ccc(C(=O)O)cc1
(31) COC(=O)c1ccc(Nc2nc(C)cc(C)n2)cc1
(32) Cc1cccc(S(=O)(=O)NCCc2ccccc2)c1

entry no.	25	26	27	28	29	30	31	32
N370S GC mod	1.6%	-23.2%	-3.1%	-7.3%	-4.1%	-2.5%	4.2%	0.5%
TDP1 inh	0.0%	0.5%	·	0.5%	14.1%	2.4%	3.8%	-8.2%

(33) CCOC(=O)C(C)Oc1ccccc1C1NC(=O)NC(C)=C1C(=O)Nc1ccc(C)c(C)c1 (stereo unspecified)
(34) CC(=O)Nc1cccc(C(=O)N2CCC(n3nccc3NC(=O)CC(C)C)CC2)c1
(35) O=C(COc1ccc(/C=N/NS(=O)(=O)c2ccccc2)cc1)Nc1ccc(F)cc1
(36) O=C(CCCN1C(=O)/C(=C\c2ccccc2)SC1=S)Nc1ccc(O)cc1C(=O)O
(37) Cc1c(C(=O)N2CCOCC2)sc2nc(-c3ccccc3)cn12
(38) CC1(CC(=O)N/N=C/c2cc(Br)c(O)cc2O)OCCO1
(39) COc1cccc(-c2cccc(NC(=O)C3CCN(C4CCC4)CC3)c2)c1
(40) OCc1cnc(SCc2ccc(F)cc2)n1Cc1ccc(F)cc1

entry no.	33	34	35	36	37	38	39	40
N370S GC mod	5.6%	2.5%	-10.3%	-3.4%	-7.2%	-6.1%	?	·
TDP1 inh	4.5%	1.0%	3.1%	7.4%	2.2%	2.0%	2.4%	5.3%

7 entries from above, with bars between the fields.
No. | smiles | N370S GC mod | TDP1 inh
39 | COc1cccc(-c2cccc(NC(=O)C3CCN(C4CCC4)CC3)c2)c1 | ? | 2.4%
33 | CCOC(=O)C(C)Oc1ccccc1C1NC(=O)NC(C)=C1C(=O)Nc1ccc(C)c(C)c1 (stereo unspecified) | 5.6% | 4.5%
36 | O=C(CCCN1C(=O)/C(=C\c2ccccc2)SC1=S)Nc1ccc(O)cc1C(=O)O | -3.4% | 7.4%
37 | Cc1c(C(=O)N2CCOCC2)sc2nc(-c3ccccc3)cn12 | -7.2% | 2.2%
34 | CC(=O)Nc1cccc(C(=O)N2CCC(n3nccc3NC(=O)CC(C)C)CC2)c1 | 2.5% | 1.0%
40 | OCc1cnc(SCc2ccc(F)cc2)n1Cc1ccc(F)cc1 | · | 5.3%
38 | CC1(CC(=O)N/N=C/c2cc(Br)c(O)cc2O)OCCO1 | -6.1% | 2.0%

(more compounds)
(41) CCOc1ccc2c(c1)C(N(CCN1CCOCC1)C(=O)Nc1ccccc1)CC(C)(C)O2 (stereo unspecified)
(42) CC1(C)CC(NC(=O)c2cccc([N+](=O)[O-])c2)CC(C)(C)N1
(43) CN1CCN(C(=O)c2ccccc2-c2ccccc2C(=O)O)CC1
(44) O=C(Nc1ccc2c(c1)OCCO2)C1CCCN(c2ncccn2)C1 (stereo unspecified)
(45) CCN1CCN(c2ncnc3scc(-c4ccc(C)cc4)c23)CC1
(46) O=C(Nc1ccncc1)c1ccc(N2CCCC2=O)cc1
(47) O=C(CSC1=NCCN1)Nc1cccc(C(F)(F)F)c1
(48) COc1cccc(CC(NC(C)=O)C(=O)NC2CCN(S(=O)(=O)c3ccc(NC(C)=O)cc3)CC2)c1 (stereo unspecified)

entry no.	41	42	43	44	45	46	47	48
N370S GC mod	-28.4%	-7.8%	4.8%	4.5%	-8.7%	-11.7%	-4.7%	-4.4%
TDP1 inh	0.0%	·	0.0%	0.0%	2.2%	1.3%[0.505 µM]	11.0%	-1.2%

(49) O=C(O)c1ccc(-c2nc(-c3ccccc3Cl)cs2)cc1
(50) CCOc1ccc(C(=O)Nc2ccc3c(c2)OCCO3)cc1
(51) CCCCNc1ncnc2c1cnn2Cc1ccc(Cl)cc1
(52) COc1ccc(CC(NC(C)=O)C(=O)NC2CCN(C(=O)c3cccc(Cl)c3)CC2)cc1OC (stereo unspecified)
(53) COc1ccc(/C=C/C(=O)NC(=S)NNC(=O)c2cnccn2)cc1
(54) O=C(O)CCCNS(=O)(=O)c1cccc2nsnc12
(55) CN(C)S(=O)(=O)c1ccc(C(=O)NCc2nnc(SCC(=O)N3CCCC3)o2)cc1
(56) CC1=CC2=NC(=O)/C(=C\c3cc(C)n(-c4ccc(F)cc4)c3C)C(=N)N2O1

entry no.	49	50	51	52	53	54	55	56
N370S GC mod	1.1%	-4.8%	-2.7%	-14.7%	-2.6%	4.0%	-6.5%	1.4%
TDP1 inh	3.6%	3.2%	·	1.1%	10.3%	0.0%	0.3%	8.0%

(57) COc1cccc(C(=O)NC(=O)Nc2cc(C)on2)c1
(58) COC(=O)c1cc(C#N)c(Oc2cccc(C)c2C)nc1C
(59) CCOC(=O)C1CCCN(C(=O)/C=C/c2cc(OC)c(OC)c(OC)c2)C1 (stereo unspecified)
(60) O=C(NCc1ccco1)[C@@H]1CSC2c3ccccc3C(=O)N21 (stereo partly specified)
(61) O=C(NCCCN1CCOCC1)c1ccc(Cl)cc1Cl
(62) CCOC(=O)C1CCCN(C(=O)Cn2nc(C)c3c(C)n(-c4ccccc4)nc3c2=O)C1 (stereo unspecified)
(63) CC1CCN(CCCCOc2ccccc2[N+](=O)[O-])CC1
(64) COCCN1CCCC(CNCc2cn(C)nc2-c2ccc(Oc3ccccc3)cc2)C1 (stereo unspecified)

entry no.	57	58	59	60	61	62	63	64
N370S GC mod	8.8%	-1.5%	24.9%	1.2%	4.5%	15.6%	-9.5%[12.8 µM]	-8.0%
TDP1 inh	3.8%	-2.8%	-2.6%	0.0%	·	6.6%	-4.0%	-5.1%

(65) COc1ccc(CCN(C)CCN2C(=O)c3ccccc3C2=O)cc1OC
(66) COc1ccc(-n2c(C)nnc2SCC(=O)Nc2ccccc2F)cc1
(67) CC1(C)CC(=O)N(c2cc(Cl)cc(Cl)c2)C(=O)C1
(68) COCCn1c(N)c(N(Cc2ccccc2)C(=O)C2CCCCC2)c(=O)[nH]c1=O
(69) CC(C)(C)c1cccc(OCCCSc2ncccn2)c1
(70) Cc1ccc(NC(=O)Cn2c(O)c(N=NC(=O)c3ccncc3)c3ccccc32)cc1
(71) CC(=O)C1C(c2ccccc2)c2c(noc2C)CC1(C)O (stereo unspecified)
(72) COC(=O)c1ccc(NC(=O)Nc2ccc3c(c2)OCO3)cc1

entry no.	65	66	67	68	69	70	71	72
N370S GC mod	-0.1%	-2.7%	-4.8%	11.7%	-5.4%	-7.7%	10.9%	-0.8%
TDP1 inh	-5.3%	·	·	8.8%	-3.1%	-1.2%	·	2.8%

(73) CCOC(=O)Cn1c(C(=O)OCC)cc2sccc21
(74) O=C(NCCc1ccccc1)c1cccc(N2CCCC2=O)c1
(75) CC(C)c1ccc(-c2nnn(Cc3nc4ccccc4s3)n2)cc1
(76) CS(=O)(=O)C1=NN2C(=N)/C(=C\c3ccc(OC(=O)c4ccco4)cc3)C(=O)N=C2S1
(77) COCCNS(=O)(=O)c1ccccc1
(78) O=c1[nH]c2c(cnn2-c2ccc(Cl)cc2)c(=O)n1-c1cccc(Cl)c1
(79) COc1ccc(S(=O)(=O)CC(=O)Nc2ccccc2Cl)cc1
(80) CCn1nc(C(=O)NCCc2ccc(S(N)(=O)=O)cc2)c2ccccc2c1=O

entry no.	73	74	75	76	77	78	79	80
N370S GC mod	-1.9%	-18.3%	20.3%	-6.9%	1.7%	17.5%	14.0%	3.4%
TDP1 inh	5.2%	1.0%	-12.0%	50.1µM*	-0.5%	5.1%	-5.5%	4.0%

(81) CC(C)c1ccc(NC2CCCN(C(=O)c3cnn(C(C)C)c3)C2)cc1 (stereo unspecified)
(82) CCOC(=O)C(=Cc1c[nH]c2ccc(S(=O)(=O)N(C)C)cc12)C(=O)OCC
(83) O=C(Nc1ccc(Oc2cccnc2)cc1)C1CCN(Cc2ccccc2F)CC1
(84) CC(C)(C)N1C(=O)[C@H]2[C@@H](c3ccc(Br)cc3)N3C(=O)N(c4ccccc4)C(=O)[C@@]3(Cc3ccccc3)[C@H]2C1=O
(85) COc1nnc(-c2ccc(C)c(S(=O)(=O)NC(C)(C)CO)c2)c2ccccc12
(86) COC(=O)N/N=C(C)\C=C\c1ccco1
(87) Clc1ccc2noc(-c3ccccc3)c2c1
(88) Cc1ccccc1S(=O)(=O)Cc1ccc(C(=O)O)o1

entry no.	81	82	83	84	85	86	87	88
N370S GC mod	1.5%	-5.8%	-3.8%	-9.3%	-12.9%	-22.9%	10.8%	19.5%
TDP1 inh	4.3%	·	2.1%	3.3%	·	-4.7%	5.9%	5.9%

(89) O=C(O)c1ccc2c(c1)C(=O)N(C(Cc1ccc(O)cc1)C(=O)O)C2=O (stereo unspecified)
(90) CC1CCN(CC(=O)Nc2ccccc2Sc2ccccc2)CC1
(91) CCOc1ccc(CN(C)C(=O)CNC(=O)c2ccc3ccccc3c2)cc1OC
(92) COc1ccccc1-c1noc(-c2cccs2)n1

entry no.	89	90	91	92
N370S GC mod	?	-3.6%	8.4%	4.9%
TDP1 inh	0.0%	-2.7%	9.2%	-4.8%

Only part of the results is shown, and most or all hits are left out here.
